Screening results as filed in PubChem BioAssay.
KCNQ2 block – KCNQ2 potassium channel inhibitors, primary screen, cell-based, CHO-K1, FluxOR thallium flux, B-score (AID 2156); O88943; 20 min; stronger effect = lower value; only compounds with negative scores are shown here; some inactives read as strong as hits; B-score at 10 µM; actives 1.1% (n = 310,000);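 active = fluorescence ratio B-score at most minus 3 library SDs, with starting brightness B-score within 2 library SDs, cut at about -5.5 in these data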
Target sequence (O88943 whole entry, looked up): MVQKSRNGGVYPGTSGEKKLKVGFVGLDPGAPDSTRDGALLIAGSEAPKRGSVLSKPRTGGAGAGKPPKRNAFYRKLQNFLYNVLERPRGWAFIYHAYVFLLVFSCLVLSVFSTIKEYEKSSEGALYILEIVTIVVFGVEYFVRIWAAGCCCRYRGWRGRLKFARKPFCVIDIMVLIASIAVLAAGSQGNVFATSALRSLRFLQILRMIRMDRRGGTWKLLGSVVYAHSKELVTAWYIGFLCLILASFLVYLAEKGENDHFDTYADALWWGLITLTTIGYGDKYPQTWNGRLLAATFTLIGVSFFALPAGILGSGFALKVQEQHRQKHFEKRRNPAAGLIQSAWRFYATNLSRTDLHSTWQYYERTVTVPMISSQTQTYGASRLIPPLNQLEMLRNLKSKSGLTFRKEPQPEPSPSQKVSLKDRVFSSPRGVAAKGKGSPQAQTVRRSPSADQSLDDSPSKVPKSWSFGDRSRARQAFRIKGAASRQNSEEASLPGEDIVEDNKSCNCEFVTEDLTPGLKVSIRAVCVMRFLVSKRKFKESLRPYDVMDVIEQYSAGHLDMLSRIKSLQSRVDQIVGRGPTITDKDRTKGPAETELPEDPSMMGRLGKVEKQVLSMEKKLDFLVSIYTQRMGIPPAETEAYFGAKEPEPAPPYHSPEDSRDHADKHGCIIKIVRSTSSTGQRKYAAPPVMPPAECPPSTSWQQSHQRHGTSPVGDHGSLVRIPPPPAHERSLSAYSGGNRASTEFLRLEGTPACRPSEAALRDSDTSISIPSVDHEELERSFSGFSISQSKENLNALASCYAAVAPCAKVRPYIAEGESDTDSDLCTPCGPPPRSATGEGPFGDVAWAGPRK
KCNQ2 block baseline – second read-out of KCNQ2 block, no call of its own (marks repeat the call); B-score; measured here: initial fluorescence intensity artifact check;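 brightness before thallium and not channel activity; 0 = typical well and far values either way flag optical interference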
The depositor's hits bear a star; i = inactive. These rows are one share of the data (hit frequency here may not be typical).

KCNQ2 block | KCNQ2 block baseline | molecule
i | 0.02 | O=C(CCS(=O)(=O)c1ccc(Br)cc1)N1CCN(c2ccc(F)cc2)CC1
i | 0.05 | O=C(c1cc(COc2ccc(F)cc2Cl)on1)N1C[C@H]2CC[C@H]1C2
i | 0.82 | CCOC(=O)N1CCN(C(=O)CN2C(=O)c3ccccc3S2(=O)=O)CC1
i | 0.77 | Cc1cc(C)cc(-c2nnc(SCC(=O)c3ccc4c(c3)OCCO4)o2)c1
i | -1.8 | CCn1c(SCC(=O)N/N=C(\C)c2ccco2)nnc1-c1ccccc1
i | -1.9 | COc1ccc(Cl)cc1NC(=O)C1(c2cccs2)CCOCC1
i | -1.2 | NC(=O)c1nsc(C(=O)N(c2cccc(F)c2)C(C(=O)NC2CCCC2)c2ccc(O)cc2)c1N (configuration not stated)
i | 0.84 | COc1ccc(Cl)cc1NC(=S)NCc1cccs1
i | 2.9 | O=C1CC(c2ccc(F)cc2)Sc2nc(C34CC5CC(CC(C5)C3)C4)nn21 (configuration not stated)
i | 0.61 | O=C(CCNS(=O)(=O)c1ccc(Br)s1)NCc1ccccc1Cl
i | -1.4 | COc1ccc(C2CC(=O)C(C=NCCN3CCN(C(=S)Nc4ccccc4)CC3)=C(O)C2)cc1OC (configuration not stated)
i | 1.6 | O=C(NC1CCCC1)C(c1ccco1)N(Cc1ccccc1)C(=O)c1csnn1 (configuration not stated)
i | 0.01 | CCCCCOc1ccc(/C=N/NC(=O)c2nnn(-c3nonc3N)c2CN2CCCCCC2)cc1
i | -0.05 | COc1ccc(CC(=O)NC2=NCCS2)cc1
i | 0.17 | COc1ccccc1-c1noc(CCCC(=O)NC2CCCC2)n1
i | -1.8 | COc1ccc(C[C@H]2CN3C(=NC[C@H]3Cc3ccccc3)N2CCNC(=O)c2ccc(C)c(Br)c2)cc1
i | -0.13 | COc1cccc2cc(CC(=O)c3ccccc3)c(=O)oc12
i | 0.39 | Fc1ccc(C2Nc3cccc4cccc(c34)N2)cc1
i | 0.45 | CS(=O)(=O)N1CCCC(C(=O)NCCCN2CCC(Cc3ccccc3)CC2)C1 (configuration not stated)
i | 3 | CCOc1cc(-c2nc(C)c(C(C)=O)n2O)ccc1OCC(=O)Nc1ccccc1
i | -0.58 | CC(C)Sc1nc(NCc2ccco2)c2c3c(sc2n1)COC(C)(C)C3
i | -0.06 | Cc1ccc2oc(=O)c(/C=C(\O)C(C)(C)C)nc2c1
i | 0.05 | Cc1cc2nc(/N=C(\N)NC(=O)C(C)C)nc(C)c2cc1C
i | -0.02 | CN(CC(=O)Nc1ccc(N2CCOCC2)cc1)C(=O)CSc1ccc(Br)cc1
i | 0.29 | Cc1ccc(NC(=O)CCCC(=O)O)c(-c2nc3ccccc3[nH]c2=O)c1
i | 1.1 | CCO[C@@H]1OC(C(=O)NCc2ccccc2)=C[C@H](c2ccc(Br)cc2)[C@H]1CCCO
i | 1.7 | O=C(NCc1ccc2c(c1)OCO2)c1n[nH]c(=O)c2ccccc12
i | -0.8 | O=C(CSc1nc2ccccc2s1)N1CCOCC1
i | 0.92 | COCCNC(=O)c1c[nH]c2ccc(S(=O)(=O)N3CCC4(CC3)OCCO4)cc2c1=O
i | 1 | Cc1ccccc1C(=O)OC1CCCN(C)C1 (configuration not stated)
i | 1.4 | O=C(N/N=C/c1ccc(OCCCF)cc1)c1ccc(C(F)(F)F)cc1
i | 1.3 | CC1=NN(c2ccccc2)C(=O)/C1=C\N1CC(C)OC(C)C1 (configuration not stated)
i | 1.9 | CC(=O)N1N=C(c2ccc(Cl)cc2)OC1(C)C
i | -0.21 | C=CCOc1ccc(C2C3=C(CCCC3=O)N(CC(=O)O)C3=C2C(=O)CCC3)cc1OCC
i | 0.55 | COc1ccc(/C=C2/CCc3ccccc3C2=O)cc1CN1CCOCC1
i | 0.7 | CC(C)CN(C(=O)COc1ccc(-c2nnco2)cc1)C1CCS(=O)(=O)C1 (configuration not stated)
i | -0.32 | O=C1c2cccc3c([N+](=O)[O-])ccc(c23)C(=O)N1c1ccccn1
i | -0.06 | O=C(c1ccc(Cl)cc1)n1c(NCc2ccccc2)n[nH]c1=S
i | 0.92 | O=C(CN1CCOCC1)OCCCC1CCCCC1
i | 1.1 | CCN(CC)c1ccc2c(C)c(Cl)c(=O)oc2c1
i | 1.8 | CCCCNc1c(N)n(CCC)c(=O)[nH]c1=O
i | 0.33 | Cn1c(SCC(=O)Nc2nccs2)nnc1-c1ccncc1
i | -0.16 | C/C(=N\NC(=O)COc1cc(C)cc(C)c1)c1cccc(NC(=O)C2CCC2)c1
i | -0.88 | CCOC(=O)c1ccc(Oc2nc(OC)cc(OC)n2)cc1
i | 0.18 | COc1ccc(C2=NN(S(C)(=O)=O)C(c3cccs3)C2)cc1OC (configuration not stated)
i | 1.5 | CSc1sc(C(=O)NCC2CC2)cc1S(=O)(=O)C(C)C
i | 2.1 | CN(C)CCN(Cc1ccccc1)c1ccnc(N(C)C)c1C#N
i | 0.07 | c1ccc2c(c1)OCCOCCOCCO2
i | 0.79 | O=C(OCN1C(=O)c2ccccc2C1=O)C1CCCCC1
i | -1.4 | COc1ccc(NC(=O)CCCC2=NS(=O)(=O)c3ccccc3N2)cc1

The list continues.
KCNQ2 block | KCNQ2 block baseline | molecule
i | 0.6 | Cc1cccc(C(=O)Nc2cccc(-c3cnc4ccccc4n3)c2)c1
i | -0.15 | COc1ccc(-n2ccn(CC(=O)Nc3ccc(OC)cc3OC)c(=O)c2=O)cc1
i | 0.89 | CC(C)N(Cc1nc(-c2ccccc2)no1)C(=O)C(Cl)(Cl)Cl
i | 0.11 | N#CCCn1c(-c2nonc2NC(=O)c2ccccc2Cl)nc2ccccc21
i | 0.24 | COc1ccc(OC)c2c1cc(C(=O)N[C@@H](C)C(=O)N[C@@H](C(=O)O)c1ccccc1)n2C
i | -0.97 | CCCOc1ccccc1N/C(=N/c1nc(C)cc(C)n1)NC(=O)COc1ccc(OC)cc1
i | 1.8 | O=C(CN(C(=O)CCC(=O)Nc1nccs1)c1cccc(F)c1)NCc1ccc(F)cc1
i | -3.4 | CC(=O)OCCNc1cc(Sc2nc3ccccc3[nH]2)c2nonc2c1[N+](=O)[O-]
i | 0.05 | CCOc1ccc(CN(C)C(=O)CNC(=O)C2CCCCC2)cc1
i | 0.61 | Nc1cc(=O)[nH]c(SCc2ccc(Cl)cc2Cl)n1
i | -1.6 | CCOc1ccc2c(c1)ncn2Cc1ccccc1
i | -0.97 | CCC(=O)Nc1sc(C(=O)Nc2ccccc2)c(C)c1C(=O)OC
i | 0.65 | Cc1nnc2nc(-c3ccccc3)nc(-c3ccccc3)n12
i | -1.9 | COc1cc(C(=O)NCC(c2ccco2)N2CCc3ccccc32)cc(OC)c1OC (configuration not stated)
i | 0.74 | CCN(CC)CCSc1nc2ccccc2c(=S)n1-c1ccccc1
i | -0.95 | COc1cc2c(cc1OC)C(COc1ccc3c(C)cc(=O)oc3c1)N(C(=O)c1ccco1)CC2 (configuration not stated)
i | 0.27 | CCOCCCNC(=O)C(c1ccc(OC)cc1)N(Cc1cccs1)C(=O)c1ccccc1O (configuration not stated)
i | 1.5 | Cc1cc(Cl)ccc1OCC(=O)Nc1ccccc1C(=O)N1CCOCC1
i | -1.1 | CCN(c1ccccc1)S(=O)(=O)c1ccc(Cl)c(NC(=O)CSc2nnc(C)s2)c1
i | 0.25 | Cc1cc(C)nc(NC(=O)c2ccc(C)o2)n1
i | -2.5 | COc1cc(NC(=O)c2cccs2)c(C(=O)OCC(=O)NC(=O)NC(C)(C)C)cc1OC
i | 0.56 | N#CC[C@H](Cc1ccccc1)N1CC[C@@H](NC(=O)OCc2ccccc2)CCC1=O
i | -1.2 | FC(F)(F)c1cccc(OCc2nnc3n2CCC3)c1
i | -1.8 | CCCCSCc1ccc(C(=O)O)o1
i | 1.1 | CCn1cc(C(=O)NCc2cccs2)c(=O)c2ccc(C)nc21
i | -0.8 | COc1cc(-c2nn3c(-c4cccc(C)c4)nnc3s2)cc(OC)c1OC
i | -0.1 | CS/C(Nc1cc(Cl)ccc1Cl)=C(/C#N)C(=O)c1ccco1
i | 1.2 | O=C(CSc1nc2ccccc2s1)N1c2ccccc2Sc2ccccc21
i | 0.01 | O=C(Cc1ccccc1)NNC1CC(=O)N(c2ccc(Br)cc2)C1=O (configuration not stated)
i | 0.2 | Cc1c(Cl)cccc1NC(=O)c1cccc(OC(F)F)c1
i | -0.4 | COc1ccc(C2=Nn3c(nnc3-c3ccccc3OC)SC2)cc1OC
i | 2.6 | O=C(N/N=C/c1ccccc1)NC1CCCCC1
i | -0.75 | COc1ccc(CN2CCN(S(=O)(=O)c3ccc(NC(C)=O)cc3)CC2)cc1
i | -1 | COc1cccc2cc(C(=O)C3=C(O)C(=O)N(c4cc(C)on4)C3c3cccs3)oc12 (configuration not stated)
i | -0.51 | O=C(CN1CCN(S(=O)(=O)c2ccc(Cl)s2)CC1)NCc1ccc(Cl)cc1
i | 0.5 | CCNC(=O)CN1C(=O)NC2(CCCCCC2)C1=O
i | 1.1 | COc1cc(NC(=O)c2ccccc2C)c(OC)cc1NC(=O)CN1CCOCC1
i | -1.9 | Cc1ccc(C(=O)NNS(=O)(=O)c2ccc(F)cc2)cc1
i | -0.57 | Cc1cccc(N2C(=O)CN(Cc3sccc3C)C2=S)c1
i | -1.1 | O=C(CCN1CCOCC1)NNC(=S)NC(=O)c1ccccc1
i | -1.1 | N#Cc1c(NC(=O)c2cccnc2)sc2c1CCC2
i | -0.38 | Cc1ccc2nc(-c3cccc(Br)c3)cc(C(=O)NC3CC3)c2c1
i | -0.18 | NC(=O)Nc1ccc(Cl)cc1
i | 0.03 | O=c1c2c(ncn2C2CCCC2)n(Cc2ccccc2)c(=O)n1CCOc1ccccc1
-6.3* | -1.6* | CC1C(=O)C(C)C(c2ccc(Br)cc2)NC1c1ccc(Br)cc1 (configuration not stated)
i | 0.92 | CCc1cccc(CC)c1NC(=S)NCc1ccc2c(c1)OCO2
i | -0.58 | COc1ccc(Oc2cc(C(F)(F)F)nc(N(C)C)n2)cc1
i | 0.05 | O=C(Nc1cccc(Cl)c1N1CCOCC1)c1ccco1
i | 2.4 | COc1ccccc1CN1CCNC(=O)C1CC(=O)NCCOc1cccnc1 (configuration not stated)
i | -0.93 | c1ccc(-c2nc(N3CCCCC3)nc3ccccc23)cc1

More entries follow:
KCNQ2 block | KCNQ2 block baseline | molecule
i | 0.2 | Cc1c(NC(=O)CSc2nccn2C)c(=O)n(-c2ccccc2)n1C
i | 1.8 | Cc1cc(C)n2nc(C(=O)Nc3ccc(S(=O)(=O)N4CCCC4)cc3)nc2n1
i | 0.04 | O=C1c2oc3ccccc3c(=O)c2C(c2cccc(O)c2)N1c1ccccn1 (configuration not stated)
i | -1.2 | COc1ccc(S(=O)(=O)N2CCCCCC2)cc1C(=O)N(C)CCOc1ccccc1
i | -3.9 | Cc1ccc(C(=O)N/C(=C\c2cn(S(=O)(=O)N(C)C)c3ccccc23)C(=O)N2CCCC2)cc1
i | -0.75 | COc1ccccc1/C=C1\SC(=S)N(CCC(=O)NC2=NCCS2)C1=O
i | 0.52 | O=[N+]([O-])c1cccc(/C=N/NC2=NS(=O)(=O)c3ccccc32)c1
i | 0.22 | COc1cc(CC(=O)Nc2ccc(S(=O)(=O)NC3=NCCCCC3)cc2)cc(OC)c1OC
i | 0.01 | Cc1ccc(C(=O)Nc2ccccc2N2CCCC2)cc1
i | 0.86 | COc1ccc(NC(=O)C(=O)NCC2CCCN2S(=O)(=O)c2cccs2)cc1 (configuration not stated)
i | 1.3 | Cc1cc(C)nc(SCC(=O)Nc2ccc(S(=O)(=O)Nc3nccs3)cc2)n1
i | 0.03 | COc1ccccc1C(=O)N1CCCC1(C#N)c1ccccc1 (configuration not stated)
i | 0.97 | Cc1ccc(NC(=S)N/C(=N/S(=O)(=O)c2ccccc2)c2ccccc2)cc1
i | 1.1 | Cc1cc(OCc2ccc(F)cc2)nc(-c2ccccc2O)n1
i | -0.04 | CC(CC(=O)NC1CCSC1=O)c1ccccc1 (configuration not stated)
i | 0.42 | COc1cccc(-c2cc(C(=O)N/N=C/c3ccco3)c3ccccc3n2)c1
i | 0.78 | Cc1oc(-c2ccccc2Cl)nc1CS(=O)(=O)CC(=O)NCCN1CCOCC1
i | -0.12 | COc1cccc(N(C(=O)c2ccco2)C(C(=O)NC2CCCC2)c2ccc(N(C)C)cc2)c1 (configuration not stated)
i | -1.4 | CCOC(=O)c1cnc2c(cnn2C)c1Cl
i | -0.58 | COC(=O)c1c(-c2ccc(Br)cc2)csc1NC(=O)Cc1ccc(OC)c(OC)c1
